Bioassay records: PubChem BioAssay, National Center for Advancing Translational Sciences (NCATS)
ClpP mod – qHTS Assay for Activators of ClpP | ATP-dependent Clp protease proteolytic subunit (Bacillus subtilis (strain 168)), P80244 | purified B. subtilis ClpP, FRET peptide cleavage, 20 min | Potency, µM (top dose mostly 57.5 µM), for inactives: at the highest dose activity change, negative = active | actives 1.9% (n = 340,000); active = well fitted falling curve with a large enough effect; inconclusive = small, poorly fitted or top-dose-only effect; inactive = no such curve, though single readings can be large or run the other way; note: potency is the fitted concentration of half-maximal effect; the source files actives as falling curves though it sought activators and does not explain the sign; nearly all actives have a fitted effect of over 65% in size; many hits overshoot -100%
Target sequence (P80244 whole entry, looked up): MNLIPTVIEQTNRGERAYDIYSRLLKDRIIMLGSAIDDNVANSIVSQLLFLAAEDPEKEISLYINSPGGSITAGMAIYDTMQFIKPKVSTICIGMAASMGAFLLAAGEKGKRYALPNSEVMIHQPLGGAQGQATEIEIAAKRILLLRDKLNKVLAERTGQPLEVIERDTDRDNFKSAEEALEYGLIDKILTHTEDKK
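Buffer: 100 mM Tris/HCl pH8, 100 mM KCl, 0.05% low protease BSA, 2.5% glycerol, 0.01% Tween-20. ClpP 10 microg/mL final; 20 min RT; delta FRET normalized to ADEP and DMSO controls.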
gsp antag – antagonists of gsp mutant (McCune-Albright syndrome); AID 624288; gsp-mutant cells, cAMP HTRF, 30 min; control for the full effect not named in the record; actives 0.4% (n = 340,000); Potency, µM (titrated, usually from 76.9 µM), without a hit: top-dose activity change, negative = inhibition, usual class: inhibitors; active = falling curve of any shape with a large fitted effect; inconclusive = falling curve, mostly with a smaller effect; inactive = flat or rising curve; cell line not stated here;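 note: intracellular cAMP measured with PDE inhibitor Ro 20-1724 present during compound exposure; potency is the fitted concentration of half-maximal effect; % is set by controls: 0 for no effect and ±100 for the full control effect; nearly all actives have a fitted effect of over 65% in size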
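Measurement of cellular cAMP by homogeneous time-resolved fluorescence following a 30 min compound exposure at 37C. The PDE inhibitor […] was present throughout; the assay buffer was DPBS with 0.05% BSA and 0.005% Tween 20.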
TRPML1 inh – human mucolipin-1 channel inhibition. TRPML1-inducible cells, Ca2+ dye fluorescence, FDSS; stronger effect = lower value; inhibition of EC80 agonist-evoked calcium signal. activity change, negative = inhibition, % (test concentration not listed). actives 0.02% (n = 390,000). AID 624415; in the data active means activity change below about -50%; inconclusive means about -30% to -50%; inactive means above about -30%;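 note: stimulus is agonist 54-4 at its EC80 concentration; % is set by controls: 0 for no effect and ±100 for the full control effect; compound concentration not given in the record; the text of the record puts the active cut at -80%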
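Tet-induced TRPML1-DL cells loaded with Ca8 no-wash calcium dye were read kinetically on FDSS. Compound addition was followed by EC80 agonist 54-4 (4 uM final); inhibition was read over 110 s.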
gsp agonist – gsp mutant agonism; gsp mutant cells, cAMP HTRF, 30 min; control for the full effect not named in the record; Potency, µM (top dose mostly 76.9 µM), inactives show top-dose activation (cAMP increase), actives largely listed as activators; actives 0.13% (n = 340,000); AID 624287; active = well fitted activation curve with a large enough effect; inconclusive = small, poorly fitted or top-dose-only effect, or another doubt; inactive = no such curve, though single readings can be large or run the other way; cell line not stated here;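 note: phosphodiesterase inhibitor Ro 20-1724 added with compounds to block cAMP breakdown; potency is the fitted concentration of half-maximal effect; nearly all actives have a fitted effect of over 60% in size; about a fifth of the inactives were tested at one dose only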
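Cells in DMEM/10% FBS with G418 were pretreated with compounds in DMSO plus […] (300 uM stock) for 30 min at 37C. cAMP was measured by HTRF (cAMP-d2 plus anti-cAMP antibody-K) after 30 min at room temperature.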
TRPV1 potentiator – human TRPV1 potentiation; actives 0.02% (n = 320,000); TRPV1-expressing cells, Fluo-8 calcium influx, capsaicin EC20 potentiation; host cell line not named in the record; control for the full effect not named in the record; potentiation, % at 8.33 µM; AID 540277; active means potentiation above 80%; inconclusive means 30% to 80%; inactive means below 30%; note: 0% is about no effect
Target sequence (Q8NER1 whole entry, looked up): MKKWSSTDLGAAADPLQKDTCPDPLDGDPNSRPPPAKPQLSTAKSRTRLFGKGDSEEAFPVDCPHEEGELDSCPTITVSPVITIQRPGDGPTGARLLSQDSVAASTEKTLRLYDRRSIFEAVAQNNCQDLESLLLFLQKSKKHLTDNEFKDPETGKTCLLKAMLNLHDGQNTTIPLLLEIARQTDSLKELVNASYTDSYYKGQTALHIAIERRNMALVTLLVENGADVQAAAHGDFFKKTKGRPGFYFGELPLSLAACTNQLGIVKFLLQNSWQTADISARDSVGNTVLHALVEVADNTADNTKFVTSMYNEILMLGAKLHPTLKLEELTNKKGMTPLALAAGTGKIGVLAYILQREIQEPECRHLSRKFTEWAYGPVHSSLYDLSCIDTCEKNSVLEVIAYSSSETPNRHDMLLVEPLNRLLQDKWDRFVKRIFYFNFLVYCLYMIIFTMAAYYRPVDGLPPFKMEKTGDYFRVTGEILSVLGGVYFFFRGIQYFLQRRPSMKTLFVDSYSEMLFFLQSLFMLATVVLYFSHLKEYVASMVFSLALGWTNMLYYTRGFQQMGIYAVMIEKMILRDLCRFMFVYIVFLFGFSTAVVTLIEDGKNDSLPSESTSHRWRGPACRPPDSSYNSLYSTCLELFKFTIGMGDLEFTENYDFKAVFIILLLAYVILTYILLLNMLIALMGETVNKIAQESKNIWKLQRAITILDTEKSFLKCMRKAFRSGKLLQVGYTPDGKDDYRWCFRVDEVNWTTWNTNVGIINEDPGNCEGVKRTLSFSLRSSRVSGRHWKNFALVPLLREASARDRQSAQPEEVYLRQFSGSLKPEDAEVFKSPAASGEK
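TRPV1-expressing cells were cultured overnight at 35.5C and loaded with Fluo-8 calcium dye for 40 to 90 min at room temperature. After a 10 s baseline, compound was added and calcium influx was read kinetically for 3 min (ex 480/em 520 nm).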
Sfp inh – Sfp phosphopantetheinyl transferase inhibition; Potency, µM, inactives show max response, negative = inhibition, most hits filed as inhibitors; Q9F4F7; actives 3.5% (n = 310,000); AID 1490; Biochemical Sfp PPTase activity, qHTS; active = well fitted inhibition curve with a large enough effect; inconclusive = small, poorly fitted or top-dose-only effect, or another doubt; inactive = no such curve, though single readings can be large or run the other way;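 note: the enzyme is Sfp with the accession as filed and its product quenches rhodamine fluorescence; potency is the fitted concentration of half-maximal effect; 0% = enzyme reaction without inhibitor and -100% = no enzyme wells; top concentration of the series not given in the record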
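Fluorescence-quenching assay: 15 nM Sfp-PPTase preincubated 15 min at room temperature with compound, then 5 uM rhodamine-CoA and 12.5 uM BHQ-2-labelled YbbR peptide added. Fluorescence (ex 525/em 598 nm) read at start and after 30 min; difference gives rate.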
Menin MLL FP FL – displaces fluorescein MLL peptide from human menin | Fluorescence polarization, fluorescein-MLL peptide displacement from menin | FP activity change, % at 61.4 µM | 290,000 tested, under 10 active | AID 1766; inconclusive = falling polarisation curve, or a change in total fluorescence; inactive = total fluorescence flat and polarisation flat or rising; no compound was filed as active; the % refers to the polarisation; negative = inhibition;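 note: % of control where 0% means no effect; inhibitors lower the polarisation; unlabelled MLL peptide was the positive control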
* hit, by the source's call; i = inactive; ? = inconclusive; nt = not tested or not shown; [ ] = another dose, or the depositor's remark.

Results follow in this order: ClpP mod	gsp antag	TRPML1 inh	gsp agonist	TRPV1 potentiator	Sfp inh	Menin MLL FP FL
> Nn1c(SCC(=O)N2CCOCC2)nnc1-c1ccco1
 : -0.4%	-16%	13	-15%	4	17%	1.0
> Cc1cc(=O)n2c3c(cccc13)CCC2
 : -0.3%	6%	3	-30%[inhibitor]	-2	-4%	1.2
> CS(=O)(=O)c1ccc(Cl)c(NC(=O)CCNC(=O)c2ccco2)c1
 : -0.5%	6%	-4	-10%	7	24%	nt
> CS(=O)(=O)N1CCC(C(=O)Nc2ccc(Cl)c(Cl)c2)CC1
 : nt	11%	6	22%[15.4 µM]	-21	7%	-0.5
> O=C(CSc1nnc2ccc(-c3ccc(F)cc3)nn12)N1CCCC1
 : 0.4%	-12%	nt	22%	-30	18%	-0.6
> CC(CC(=O)Nc1ccc(F)c([N+](=O)[O-])c1)c1ccccc1 (configuration not stated)
 : -1.9%	-12%	-1	-1%	3	6%	-2.2
> O=S(=O)(Cc1ccc(Cl)cc1)N1CCN(c2ncccn2)CC1
 : -9.9%	4%	3	28%	-7	22%	nt
> COc1ccc(C(=O)Nc2nnc(SCC(=O)Nc3ccc(NC(C)=O)cc3)s2)c(OC)c1
 : -9.7%	3%	-6	?	6	2%	nt
> O=C(Nc1ccc2nc3n(c(=O)c2c1)CCCC3)c1ccccc1F
 : -0.1%	10%	nt	?	-1	22%	3.2
> CN(C)c1ccc(/C=N/NC(=O)c2ccnn2C)cc1
 : -3.1%	-7%	-4	8%	-13	-1%	-3.6
> O=c1cc(-c2ccccc2)oc2cc(O)ccc12
 : -3.2%	-19%	5	-13%	nt	-21%	-1.2
> COC(=O)c1c(NC(=O)c2ccco2)sc(C(=O)Nc2ccc(F)cc2)c1C
 : -5.7%	-17%	13	-35%[inhibitor]	1	18%	4.0
> COCCn1nnnc1C(c1ccc(OC)c(OC)c1)N1CCN(C(=O)c2ccco2)CC1 (configuration not stated)
 : nt	-3%	-1	11%[15.4 µM]	7	-5%	2.4
> Cc1ccc(C)c(N2CCN(S(=O)(=O)c3c(C)[nH]c(C)c3C(=O)N3CCCC3)CC2)c1
 : nt	-7%	22	-1%	9	9%	-0.7
> Cc1cc(NC(=O)CCCC(=O)Nc2ccc(F)cc2)no1
 : -2.1%	2%	-7	0%	1	7%	-2.0
> O=C(CCC1CCCN(C(=O)C2=CCCCC2)C1)N1CCN(c2ccccn2)CC1 (configuration not stated)
 : ?	1%	-3	0%	?	9%	-0.8
> CCCN(CCC)S(=O)(=O)c1cccc(C(=O)N=c2sccn2C)c1
 : -11%	-14%	13	6%	-6	6%	nt
> NC(=O)C1(Nc2ccc(-c3ccc(Br)cc3)cc2)CCCC1
 : -4.7%	-4%	3	2%	nt	nt	nt
> O=C(O)c1ccc(N/N=C/c2ccc(-c3ccccc3Cl)o2)cc1
 : nt	-14%	4	15%[15.4 µM]	12	7%	3.5
> O=S(=O)(c1ccc(NC(=S)NCc2ccc(F)cc2)cc1)N1CCOCC1
 : -2.1%	-3%	-7	5%	-17	1%	nt
> CN1CCN(C(=O)c2cc(=O)c3cc(Cl)cc(Cl)c3o2)CC1
 : nt	1%	0	4%	-1	11%	1.2
> O=C(OCC(=O)N1CCN(C(=O)COC(=O)c2ccncc2)CC1)c1ccncc1
 : -3.1%	15%	-11	-28%	-7	2%	4.7
> Cc1cc(C)n(-c2ccc(C(=O)OCC(=O)NCc3ccc(Cl)cc3)cc2)n1
 : 13%	15%	-1	30%	-6	7%	-3.6
> O=c1oc2ccc(F)cc2c2c1C1O[C@](c3ccsc3)(Cc3c1ccc1ccccc31)O2
 : nt	nt	nt	nt	i	-4%	5.0[11.7 µM]
> O=C(N/N=C/c1cccnc1)c1ccc(NC(=O)c2ccccc2Cl)cc1
 : -0.7%	-8%	14	3%[15.4 µM]	-16	6%	0.2
> COc1cc2c3cc1OCc1c(O)c(OC)cc4c1C(Cc1ccc(cc1)Oc1cc(ccc1O)CC3N(C)CC2)N(C)CC4 (configuration not stated)
 : nt	nt	-7	nt	nt	9%	-1.9
> O=C(NC(=S)Nc1cccnc1Cl)c1ccco1
 : -3.7%	7%	27	-20%	2	-29%	-2.8
> COc1ccc(-c2ccc(/C=N/NC(=O)c3cccnc3)o2)c([N+](=O)[O-])c1
 : 0.5%	-3%	2	0%[15.4 µM]	1	-24%	nt
> Cc1cc(C)c2c(n1)sc1c(=O)n(Cc3ccccc3Cl)nnc12
 : -1.5%	6%	4	?	10	9%	-0.7
> CC(O)(CS(=O)(=O)Cc1ccccc1)c1ccc(Cl)cc1 (configuration not stated)
 : 1.4%	6%	14	3%	22	1%	4.7
> Cc1csc(SCC(=O)NCc2cccs2)n1
 : -17%	0%	4	-8%	1	5%	-1.4
> COC(=O)C1CN(C(=O)C(C)Oc2cc(C)ccc2C(C)C)c2ccccc2O1 (configuration not stated)
 : 1.6%	-5%	20	3%[15.4 µM]	-23	6%	-13
> Cc1noc(C)c1-c1nc(CSc2ccccc2)no1
 : nt	5%	-4	?	?	-3%	-0.2
> CCN(CC(=O)Nc1ccc(NC(C)=O)cc1)C(=O)CCN1C(=O)c2cccc([N+](=O)[O-])c2C1=O
 : -3.0%	5%	-4	4%[15.4 µM]	12	3%	nt
> CCC(=O)N(C)C[C@H]1Oc2cc(-c3ccccc3F)ccc2S(=O)(=O)N([C@H](C)CO)C[C@H]1C
 : -0.4%	nt	-14	2%	nt	nt	nt
> Cc1ccc(NC(=O)CSc2nnc(-c3ccncc3)o2)cc1C
 : nt	-7%	-3	1%[15.4 µM]	2	16%	-0.3
> Cc1ccc(NC(=O)COC(=O)C2CSC3(C)CCC(=O)N23)cc1S(=O)(=O)N1CCOCC1 (configuration not stated)
 : -0.9%	2%	10	19%	0	-3%	-0.2
> CCN1C(c2ccccc2)C(C)C(=O)C(C)C1c1ccccc1 (configuration not stated)
 : 1.3%	-6%	9	19%	3	-11%	2.3
> CC(C)N(CC#CCC1(O)c2ccccc2-c2ccccc21)CCO
 : -0.8%	-10%	6	0%	-2	50µM*	-0.8
> COC(=O)c1ccc2c(=O)[nH]c(CN3c4ccccc4CC3C)nc2c1 (configuration not stated)
 : -14%	-10%	-1	-4%	-4	-20%	-0.6
> Cc1ccc(S(=O)(=O)N(C)c2ccc(OCC(=O)Nc3ccc(S(C)(=O)=O)cc3)cc2)cc1
 : -3.2%	-11%	-6	-39%[inhibitor]	nt	nt	nt
> COC(=O)c1cc(-c2ccccc2)n(CC(=O)O)c1C
 : -6.0%	6%	-2	2%	3	-7%	-0.6
> S=C1Nc2ccccc2Sc2ccc(Cl)cc21
 : 0.7%	11%	7	-5%	-4	?	1.4
> CCOC(=O)/C(C#N)=C/c1c(N2CCN(C)CC2)nc2ccccn2c1=O
 : nt	1%	-5	?	-18	11%	-7.0
> Cn1cnnc1SC(C(=O)c1ccccc1)c1ccccc1 (configuration not stated)
 : -0.2%	22%	-4	-41%[inhibitor]	nt	?	3.6
> CN(C)/C=C/C(=O)c1ccn(S(=O)(=O)c2ccccc2)c1
 : -0.7%	-5%	13	-33%[inhibitor]	1	12%	0.8
> COc1ccc(OC)c(Nc2nc(N)nc(CCl)n2)c1
 : nt	-13%	-6	14%[15.4 µM]	-4	9%	1.6
> Oc1c(C=NCc2ccc(F)cc2)[nH]c2ccc(Br)c(Cl)c12
 : nt	nt	nt	nt	3	-17%	16
> CCOC(=O)c1c(NC(=O)C2C3CCC(O3)C2C(=O)O)sc(C)c1-c1ccc(F)cc1 (configuration not stated)
 : -7.0%	2%	28	?	-8	4%	-4.0
> CN(C)c1ccc(NC(=O)COC(=O)c2cc(Cl)ccc2[N+](=O)[O-])cc1
 : -10%	-8%	-22	15%	-3	0%	2.1
> C[C@@H]1CN([C@H](C)CO)C(=O)c2cc(NS(=O)(=O)c3cn(C)cn3)ccc2O[C@@H]1CN(C)S(C)(=O)=O
 : -5.5%	9%	-4	nt	nt	nt	nt
> COc1ccc(C(=O)NC(=S)NNC(=O)CNC(=O)C2CCCCC2)cc1
 : nt	4%	40	17%[15.4 µM]	3	-23%	-1.6
> C/C(=N\NC(=O)Cn1nc(C)c([N+](=O)[O-])c1C)c1ccco1
 : nt	3%	2	-2%[15.4 µM]	16	17%	4.8
> COc1ccc(Cl)cc1C(Nc1cccnc1)c1ccc2cccnc2c1O (configuration not stated)
 : nt	-2%	-11	-13%	6	-15%	-1.8
> CCOC(=O)Cc1csc(SCC(=O)N2CCN(c3ccc(OC)cc3)CC2)n1
 : -1.4%	-21%	-4	5%	6	-5%	5.0
> Cc1nc2c(c(=O)n1CCC1=CCCCC1)c1nc3ccccc3nc1n2/N=C/c1ccccc1
 : -19%	-20%	1	-22%	0	1%	3.7
> Cc1onc(-c2c(F)cccc2Cl)c1C(=O)NC1CC1
 : 0.8%	22%	-7	?	-30	23%	nt
> CC(=O)O[C@@H]1C[C@H]2C(C)=C[C@H]3OC(=O)[C@@H](C)[C@H]3C[C@H]2[C@]1(C)O
 : -0.7%	-5%	-6	nt	-30	6%	-2.5
> CC1CCN(c2nc3c(c(=O)n(C)c(=O)n3C)n2CCSc2nc3ccccc3o2)CC1
 : nt	nt	nt	nt	?	9%	0.5
> O=C(C1CCCC1)N1CCN(S(=O)(=O)c2ccc(Cl)cc2)CC1
 : nt	0%	-28	-22%	0	12%	1.7

Additional results.
Results follow in this order: ClpP mod	gsp antag	TRPML1 inh	gsp agonist	TRPV1 potentiator	Sfp inh	Menin MLL FP FL
> Cc1ccc(NC(=S)NC(=O)c2ccc(-c3ccc(Cl)cc3)o2)c(O)c1
 : -2.5%	0%	-5	-14%	-2	2%	0.5
> NC(=O)CN1CCN(C(=O)NC2CCCCC2)CC1
 : -0.4%	9%	5	4%	nt	13%	0.9
> Cc1n(CC(O)COCc2ccccc2)c2ccccc2[n+]1C (configuration not stated)
 : 0.4%	2%	9	12%	1	4%	3.5
> CC1CCN(C(=O)c2[nH]cnc2C(=O)NC2CCN(C(=O)OC(C)(C)C)CC2)CC1
 : -1.3%	4%	1	nt	1	nt	nt
> COC(=O)CN1C(=O)c2cccc3cccc1c23
 : nt	7%	-9	24%	12	-4%	-5.3
